Compound activity (PubChem BioAssay)
NPYLR7 agonist: mosquito NPYLR7 agonism; activation, % at 10 µM; HEK293T NPYLR7/Galpha15, GCaMP6s calcium fluorescence; 270,000 compounds, 0.15% hits; in the data active = activation above about 40%;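 note: 0% = vehicle and 100% = reference agonist at the receptor; some compounds past the cut are filed as inactive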
NPYLR7 agonist max-min: also measured in NPYLR7 agonist; calls as there; activation, %; measured here: Max-Min RFU normalised activation; some inactives read as strong as hits;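 span of the calcium signal over five minutes; 0% = vehicle and 100% = native peptide agonist; compound fluorescence can raise it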
* hit, by the source's call; & = joins results of further samples. A portion of the library (hit frequency here may not be typical).

SMILES | NPYLR7 agonist | NPYLR7 agonist max-min
C=CCOc1ccc(Br)cc1/C=C/c1[nH]c(=O)[nH]c(=O)c1[N+](=O)[O-] | 1.5 | 3.0
O=C(NCCC1=CCCCC1)c1ccccc1-n1cnnn1 | 3.5 | 1.0
CCN(Cc1ccccc1)C(=O)c1nn(-c2ccccc2C)c(=O)cc1OC | -5.5 | -4.8
Cc1nc(C2CN(CCn3c(=O)oc4ccccc43)CCO2)n[nH]1 (centres undefined) | 5.3 | 4.8
O=C1c2ccccc2C(=O)N1CCCCN(C(=O)c1ccccc1Br)c1ccc(Cl)cc1 | 3.6 | -0.5
COc1ccc(OC)c(C2CCN(CCC(=O)Nc3nccs3)C2)c1 (centres undefined) | 6.4 | 3.2
COc1ccc(-c2ccc3c(c2)N(Cc2ccccc2)C(=O)COC3)cn1 | 3.2 | -1.8
O=C(NCCn1ncc2c(=O)n(Cc3ccccc3F)cnc21)c1ccco1 | -4.9 | -9.5
COc1ccc(C2=NN(c3nc(-c4ccccc4)c4cc(Br)ccc4n3)C(c3ccccc3)C2)cc1 (centres undefined) | 0.0 | -4.3
Clc1ccc(C2=Nc3ncnn3C(c3cccc(Br)c3)C2)cc1 (centres undefined) | 12.0 | 16.9
CN(C)S(=O)(=O)c1ccc(Cl)c(NC(=O)CCl)c1 | -2.1 | -1.3
CSc1nc2nc3c(cc2c(=O)[nH]1)C(O)Oc1ccc(C)cc1-3 (centres undefined) | 4.1&-9.6 | 11.2&-9.7
Cc1cccc(NC(=O)CN(C)c2ccc(C(=O)N3CCCC(C)C3)cn2)c1C (centres undefined) | 8.8 | 6.8
Cc1cc(N2CCN(C/C=C/c3ccccc3)CC2)nc(SCc2ccc(C(=O)O)o2)n1 | 11.7 | 13.7
CCOC(=O)C1c2c(OC)ccc3c2C(=CC(C)(C)CO3)CN1Cc1nccn1C (centres undefined) | 2.3 | 7.2

7 of the compounds above, with values under each structure:
Sequence of screens: NPYLR7 agonist | NPYLR7 agonist max-min
CCN(Cc1ccccc1)C(=O)c1nn(-c2ccccc2C)c(=O)cc1OC
  -5.5 | -4.8
Cc1nc(C2CN(CCn3c(=O)oc4ccccc43)CCO2)n[nH]1 (centres undefined)
  5.3 | 4.8
O=C1c2ccccc2C(=O)N1CCCCN(C(=O)c1ccccc1Br)c1ccc(Cl)cc1
  3.6 | -0.5
COc1ccc(OC)c(C2CCN(CCC(=O)Nc3nccs3)C2)c1 (centres undefined)
  6.4 | 3.2
COc1ccc(-c2ccc3c(c2)N(Cc2ccccc2)C(=O)COC3)cn1
  3.2 | -1.8
O=C(NCCn1ncc2c(=O)n(Cc3ccccc3F)cnc21)c1ccco1
  -4.9 | -9.5
COc1ccc(C2=NN(c3nc(-c4ccccc4)c4cc(Br)ccc4n3)C(c3ccccc3)C2)cc1 (centres undefined)
  0.0 | -4.3

(list continues)
SMILES | NPYLR7 agonist | NPYLR7 agonist max-min
CN1CCN(CC(=O)Nc2c(C(N)=O)nnn2Cc2ccccc2)CC1 | 0.9 | 6.0
COC(=O)[C@@H]1C[C@H](O)CN1S(=O)(=O)CC1CCCCC1 | 1.1 | 0.5
COc1cccc(NC(=O)CCC2CCN(C(=O)c3cc(C(C)C)no3)CC2)c1 | 16.7 | 7.7
CCCCCNc1cc(C)nc2c(-c3ccc(C)cc3)cnn12 | -3.9 | -5.6
Brc1cccc(OCCN2CCc3ccccc3C2)c1 | -6.5 | 14.1
CC1(C)CC(=O)C2=C(C1)OC(=N)C(C#N)C2c1ccc(Cl)cc1 (centres undefined) | -10.7 | -18.1
CC1CC2C3CCC4=CC(=O)C=CC4(C)C3(F)C(O)CC2(C)C1(O)C(=O)CO (centres undefined) | -0.5 | -5.4
CCc1nc2ccc(C(=O)NCCN3CCNC3=O)cn2c1N(C)CCCc1ccccc1 | 18.6 | 9.4
CCOc1ccc(-c2ccc(SCC(N)=O)nn2)cc1 | 1.9 | 1.9
Cc1ccc2nc(SCC(=O)N3CCCc4ccccc43)nc(=O)n2c1 | 0.7 | -1.1
NC[C@H]1O[C@H](OC2[C@@H](N)C[C@@H](N)[C@H](O[C@H]3O[C@H](CO)[C@@H](O)[C@H](N)[C@H]3O)[C@H]2O)[C@H](N)[C@@H](O)[C@@H]1O (some centres undefined) | 2.7 | -7.0
Cc1c(-c2nc(-c3ccccc3Cl)no2)nnn1-c1ccc(F)cc1 | -4.6 | -8.2
FC(F)n1c(=S)n(C(F)F)c2ccccc21 | -10.6 | -11.1
Cc1cnc(C)c(Nc2nc(C(N)Cc3ccccc3)cs2)n1 (centres undefined) | -0.5 | -5.1
COC(=O)[C@@H]1CCCN1Cc1nc(NCCc2ccccc2OC)c2ccccc2n1 | 24.8 | 10.8

Two of the compounds above, with two lines to a compound.
Value order – NPYLR7 agonist	NPYLR7 agonist max-min
CC1CC2C3CCC4=CC(=O)C=CC4(C)C3(F)C(O)CC2(C)C1(O)C(=O)CO (centres undefined)
→ -0.5	-5.4
Cc1ccc2nc(SCC(=O)N3CCCc4ccccc43)nc(=O)n2c1
→ 0.7	-1.1

Other compounds:
SMILES | NPYLR7 agonist | NPYLR7 agonist max-min
CC1(NC(=O)CNc2cc3c(cc2Br)OCCO3)CCS(=O)(=O)C1 (centres undefined) | -2.5 | -2.2
Cc1ccc(C2(C)CC2(Br)Br)cc1 (centres undefined) | -11.8 | -17.5
CC(C)Cc1cc(C(=O)N2CCCC(CO)(Cc3ccc(F)cc3F)C2)n[nH]1 (centres undefined) | -7.4 | -6.3
O=C(Cc1cccnc1)NCc1ccc(-c2ccc(F)cc2)o1 | -6.5 | -13.9
O=C(C[C@@H]1C[C@@H]2C=C[C@H]1C2)N1CCc2c(ncnc2N2CCOCC2)C1 | -0.7 | -0.9
CCc1noc(C)c1C(=O)N1CCCC(CCC(=O)NCc2ccccc2Cl)C1 (centres undefined) | 22.8 | 11.9
CCCCCn1c(SCCO)nc2c1c(=O)[nH]c(=O)n2C | 3.2 | 21.0
Cc1cccc(-n2nc(-c3ccc([N+](=O)[O-])cc3)cc2C(=O)Nc2ccc(F)cc2)c1 | -2.9 | 4.1
Cc1nc(C(=O)OCC(=O)N(C2CCCCC2)C2CCCCC2)cs1 | 3.0 | 1.9
COc1cccc(OC)c1C(=O)NCCN1CCn2cc(OC)c(=O)cc2C1=O | 14.9 | 4.0
Cn1c2ccccc2c2nc3cc(Cl)ccc3nc21 | 2.0 | 1.6
COc1ccc(S(=O)(=O)N(C)CCCC(=O)Nc2ccc3c(c2)CCC3)cc1 | 2.6 | 4.1
COc1cccc(COC(CN2CCN(C(=O)c3cccs3)CC2)c2ccc(Cl)cc2)c1 (centres undefined) | -5.2 | -8.8
CN(C)CCNCC1(c2ccnc(-c3ccnn3C)c2)CC1 | -15.0 | -15.0
COc1ccc(Cn2cnc3c4ccccc4n(CC(=O)NCc4ccccc4)c3c2=O)cc1 | 1.9 | -5.0
O=C(CN1Cc2ccccc2C(c2ccccc2)C1)NC1CC1 (centres undefined) | -0.1 | -0.7
O=C(NC(c1ccc(F)cc1)c1ccccn1)C1CCN(CCc2c[nH]c3ccccc23)CC1 (centres undefined) | 8.4 | -4.4
CCN(CC)c1ccc(CN(CC2CCCO2)C(=O)c2ccccc2Cl)c(OS(C)(=O)=O)c1 (centres undefined) | 7.6 | 14.6
CC(C)CC(C)NC(=O)c1cccnc1Oc1cccc([N+](=O)[O-])c1 (centres undefined) | 18.7 | 6.6
Cc1sc(-n2cccc2)c(C(=O)Nc2nccs2)c1C | 4.7 | 4.1
O=C(c1c(Cl)cccc1Cl)N1CCC(CCc2ccc3c(c2)OCO3)CC1 | 2.6 | -1.8
C=CCNc1ccccc1C(=O)N1CCC(Nc2ncccn2)CC1 | 19.7 | 6.5
COc1ccc(Br)cc1/C=C1\C(=O)N(c2ccccc2)N=C1C | -0.6 | -13.8
COc1ccccc1C(=O)Nc1cc(Cl)ccc1Sc1nnnn1C | -3.2 | -4.3
CN(C)CCNC(=O)c1cc2sccc2n1CC1CCC1 | 3.3 | 0.5
COc1ccccc1C1SC(C)C(=O)N1CCNC(C)C (centres undefined) | 0.0 | -5.8
CCCc1nc2sc3ccccc3c(=O)c2c(=O)n1Cc1ccc(OC)cc1 | 5.1 | 3.3
CCC(NC)c1ccc(-c2cccc3ncccc23)cc1 (centres undefined) | 10.6 | 6.2
COc1ccc(-c2noc(-c3c(SC)nn(CC(=O)Nc4ccc(C)c(C)c4)c3N)n2)cc1 | -2.1 | -6.5
CCN1CCN(c2cc(C(F)(F)F)nc(SCc3ccc(C(=O)NCCN(C)C)cc3)n2)CC1 | 11.6 | 12.0
Cc1cc(C)cc(CN2CCC(Cc3ccc4c(c3)OCO4)CC2)c1 | -2.0 | -2.0
COc1ccc(OCCN2CCC(C(=O)NC(C)c3ccccc3)CC2)cc1 (centres undefined) | 7.2 | -5.8
CS(=O)(=O)NC1CCN(Cc2ccc(-c3ccccc3)cc2)CC1 | 10.5 | 7.3
O=c1ccc2cc3c([nH]c4ccc(Br)cc43)oc-2c1O | 17.5 | 7.0
CC1Cc2ccccc2N1S(=O)(=O)c1ccc2c(c1)CCC(=O)N2 (centres undefined) | 9.0 | 5.3
c1ccc2c(c1)OCC(CNCc1ccc3c(c1)OCO3)O2 (centres undefined) | 16.2 | 7.4
O=C(Cn1cnc2scc(-c3cccs3)c2c1=O)NC1CCCC1 | -1.2 | -4.4
COCCNS(=O)(=O)c1ccc(OC)c(N2CCN(C(=O)CCSC)CC2)c1 | 4.5 | 4.0
O=C(/C=C/c1ccc(O)cc1)c1ccccc1O | 1.5 | -0.8
Cc1cccc(-n2nc(C(=O)Nc3ccccc3)c(=O)n(Cc3cccc(C(F)(F)F)c3)c2=O)c1 | 6.4 | 5.1
COCCN(CC(=O)N(CCc1c[nH]c2ccccc12)Cc1ccc(C)cc1)C(=O)COc1ccc(Cl)cc1 | 21.4 | 19.3
CNN=C(C)c1ccc(Br)s1 | 10.6 | 8.1
Cc1ccc(Cl)cc1N1C(=O)C2CC=CCC2C1=O (centres undefined) | -1.0 | -0.4
COc1ccc(-c2ccc(C)c(NS(C)(=O)=O)c2)nn1 | 0.0 | 10.1
O=C(Cn1c(=O)[nH]c2ccccc2c1=O)N1CCN(S(=O)(=O)C2CC2)CC1 | 0.4 | -0.6
O=C(CN1C(=O)c2ccccc2S1(=O)=O)N(C1=CCCCC1)C1CC1 | 9.4 | 7.6
CCc1nc(C2CCCN(c3ncnc4cc(F)c(F)cc34)C2)no1 (centres undefined) | -0.8 | -6.4
CC(Oc1ccccc1)C(=O)Nc1cc(F)ccc1F (centres undefined) | -26.0 | -16.5
Cc1cccc(-n2nc(C(=O)O)c(=O)n(Cc3ccccc3C)c2=O)c1 | 20.0 | 28.3
COCCN(CC(=O)N(CCc1c[nH]c2ccccc12)Cc1ccc(OC)c(OC)c1)C(=O)c1ccc([N+](=O)[O-])cc1 | -9.7 | -3.8
Cc1sc(-c2c(C#N)c(N)nc3c2CCCCC3)cc1[N+](=O)[O-] | 2.1 | 3.7
CNC(=O)COc1ccc(Nc2nnc(-c3ccc(C)c(S(=O)(=O)NC)c3)c3ccccc23)cc1 | -17.1 | -23.9
CN(C)c1ccc(C(=O)NCc2ccc3c(c2)OCCO3)cc1F | 0.7 | -1.1
Cc1ccccc1C1c2ccsc2CCN1C(=O)CN(Cc1ccco1)C(=O)c1ccco1 (centres undefined) | -12.6 | -10.7
Cc1nc(CC(=O)N2CCCC2c2ccc(C(=O)NC3CC3)s2)cs1 (centres undefined) | 26.4 | 7.5
CCOC(=O)Nc1cccc(C(=O)n2ccccc2=NC(C)C)c1 | 12.6 | 6.1
CC(C)CN(C)C(=O)CC1C(=O)NC2(CCCC2)CN1Cc1ccc(Cl)cc1 (centres undefined) | 3.7 | -1.6
Cc1c(C(=O)NCCCN2CCCCC2C)cnc2c(-c3cccc(Cl)c3)cnn12 (centres undefined) | 12.9 | 27.8
Clc1ccc(-c2nc3c(c(NCCn4cccn4)n2)CNC3)cc1 | 2.9 | 2.1
Cc1ccc(NS(=O)(=O)c2ccc3ccccc3c2)cc1 | -8.3 | -12.1

Remaining list, next part
SMILES | NPYLR7 agonist | NPYLR7 agonist max-min
COC(=O)Cc1ccc(OCc2nccc(N)n2)cc1 | 3.0 | 0.9
O=C1C2Sc3[nH]c(=O)sc3C(c3ccc(O)cc3)C2C(=O)N1c1ccc(Br)cc1 (centres undefined) | 3.5 | 0.9
CC(C)NC(=O)N1CCNC(=O)C1c1cccs1 (centres undefined) | 3.9 | 0.8
CC(C)c1nc(CC(=O)NC(C)c2ccncc2)cs1 (centres undefined) | 6.8 | 3.8
C=CCNC(=O)CSc1nc(N)c2c3c(sc2n1)CCCC3 | -5.4 | -4.6
Cc1ccc(-n2ncc3c(=O)n(NC(=O)CCC4CCCC4)cnc32)cc1C | 10.4 | 5.6
CCN1Cc2ccccc2N([C@@H]2CCC[C@H]2O)CCC1=O | 0.4 | 3.5
CC1(C(=O)NS(=O)(=O)c2ccccc2Cl)CCN1C(=O)c1cccc2ccccc12 (centres undefined) | 2.8 | 1.7
O=C(NC1CC1)c1ccc(CSc2nnc(-c3ccco3)n2-c2ccccc2F)cc1 | 15.3 | 16.4
O=C(c1cccc(F)c1)N(Cc1cccnc1)c1nc2c(F)cccc2s1 | -7.9 | -8.3
CC(C)c1nc(CNC(=O)CC2C(=O)NCCN2Cc2ccoc2)cs1 (centres undefined) | 6.9 | 4.1
CCCc1nc(C2CCC(C3CCC(CCC)CC3)CC2)no1 (centres undefined) | -5.3 | -6.9
Cc1[nH]c2ccccc2c1S(=O)(=O)CCNC(=O)Nc1ccc(C(F)(F)F)cc1 | 12.3 | 14.8
CCn1cc(CNC(=O)c2ccc3nc(Cc4cccc(Cl)c4)oc3c2)cn1 | -15.9 | -18.7
Cc1ccc(SC(C)C(=O)Nc2cccc(C(N)=O)c2)cc1 (centres undefined) | 11.6 | 3.3
Cc1ccc(-n2nc(-c3ccccc3Cl)cc2C(=O)O)c(C)c1 | 0.8 | 7.0
